Assay outcomes: PubChem BioAssay, National Center for Advancing Translational Sciences (NCATS)
D2 agonist = activates the human D2 dopamine receptor; activation, % (no concentration beside the values); P14416; 0.084% of 360,000 active; DiscoveRx PathHunter D2 beta-arrestin, luminescence, 90 min; 100% = 57 uM dopamine signal; in the data active = activation above about 40%; inconclusive = about 15% to 40%; inactive = below about 15%; further: compound concentration not given in the record; the text of the record calls up to 30% inactive
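DiscoveRx PathHunter D2 beta-arrestin cells (2,100/well) attached overnight, then compound-stimulated 90 min at 37 C in HBSS/10 mM HEPES/0.1% Tween-20 buffer; beta-galactosidase complementation read by luminescence after 1 h at ambient temperature. Dopamine 57 uM final (EC100) as control.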
TRPML1 inh = blocks the human TRPML1 channel; Q9GZU1; TRPML1-inducible cells, Ca2+ dye fluorescence, FDSS; hits give low values; inhibition of EC80 agonist-evoked calcium signal; activity change, negative = inhibition, % (test concentration not listed); 0.02% of 390,000 active; in the data active means activity change below about -50%; inconclusive means about -30% to -50%; inactive means above about -30%;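 further: stimulus is agonist 54-4 at its EC80 concentration; on the % scale 0 is the no-effect control and ±100 the full control effect; compound concentration not given in the record; the text of the record puts the active cut at -80%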
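Calcium fluorescence in TRPML1-DL cells induced overnight with Tet: a 110 s read after compound pin addition, then a 110 s antagonist read after challenge with 54-4 at 4 uM final (EC80).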
PINK1 expr mod = changes PINK1 expression | PINK1 immunofluorescence, high-content cytometry, 24 h | 0.2% of 410,000 active | Potency, µM (series often up to 76.6 µM), for inactives: top-dose activation (PINK1 increase), most hits filed as activators; active = well fitted activation curve with a large enough effect; inconclusive = small, poorly fitted or top-dose-only effect; inactive = flat fitted curve, though single readings scatter; cell line not stated here;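 further: potency means the concentration at half of the fitted maximal effect; % of control where 0% means no effect; nearly all actives have a fitted effect of over 65% in size; a mitochondrial uncoupler was the plate control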
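Readout is PINK1 immunofluorescence, quantified alongside mitochondrial, cell and nuclear markers by laser-scanning microplate cytometry. Cells from a stable line were exposed to compound titrations (5 concentrations) for 24 hours, with CCCP controls.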
CtBP-E1A blk = CtBP/E1A binding inhibition. AlphaScreen GST-E1A/His-CtBP binding, 1536-well; hits give low values; control for the full effect not named in the record. activity change, % (test concentration not listed). 0.49% of 340,000 active; in the data active means activity change below about -65%; inconclusive means about -30% to -65%; inactive means above about -30%; further: on the % scale 0 is the no-effect control and ±100 the full control effect; compound concentration not given in the record
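Steps: dispense buffer (Tris pH 8.0, NaCl 300 mM, TCEP 1 mM, BSA, Tween 20); add 5X protein mix (GST-E1A, His-CtBP, 125 nM each); pin 23 nL compound; 2 h at 37 °C, dark; add 5X beads (50 ug/mL); 1 h; read.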
Six1-Eya2 blk = inhibitors of human Six1/Eya2 interaction; Q15475+O00167; activity change, % (no concentration beside the values); AlphaScreen GST-Six1/His-Eya2 binding, biochemical; hits give low values; control for the full effect not named in the record; 0.56% of 360,000 active; AID 651725; in the data active = activity change below about -65%; inconclusive = about -30% to -65%; inactive = above about -30%; further: on the % scale 0 is the no-effect control and ±100 the full control effect; compound concentration not given in the record
Target sequence (O00167 whole entry, looked up): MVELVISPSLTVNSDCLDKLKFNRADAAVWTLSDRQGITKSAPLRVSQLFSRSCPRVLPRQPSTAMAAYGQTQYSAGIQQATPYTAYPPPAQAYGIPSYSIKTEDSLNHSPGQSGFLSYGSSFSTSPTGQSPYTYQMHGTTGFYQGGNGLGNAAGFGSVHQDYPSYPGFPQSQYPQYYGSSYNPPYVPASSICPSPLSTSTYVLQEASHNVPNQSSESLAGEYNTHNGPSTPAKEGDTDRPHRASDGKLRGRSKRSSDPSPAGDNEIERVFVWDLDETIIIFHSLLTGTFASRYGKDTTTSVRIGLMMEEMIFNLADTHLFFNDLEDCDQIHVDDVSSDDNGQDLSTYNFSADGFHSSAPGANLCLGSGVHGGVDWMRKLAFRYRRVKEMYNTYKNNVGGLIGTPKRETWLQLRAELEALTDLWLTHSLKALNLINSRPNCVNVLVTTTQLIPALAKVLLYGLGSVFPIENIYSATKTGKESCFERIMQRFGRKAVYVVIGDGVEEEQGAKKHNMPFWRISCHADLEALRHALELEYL
Target sequence (Q15475 whole entry, looked up): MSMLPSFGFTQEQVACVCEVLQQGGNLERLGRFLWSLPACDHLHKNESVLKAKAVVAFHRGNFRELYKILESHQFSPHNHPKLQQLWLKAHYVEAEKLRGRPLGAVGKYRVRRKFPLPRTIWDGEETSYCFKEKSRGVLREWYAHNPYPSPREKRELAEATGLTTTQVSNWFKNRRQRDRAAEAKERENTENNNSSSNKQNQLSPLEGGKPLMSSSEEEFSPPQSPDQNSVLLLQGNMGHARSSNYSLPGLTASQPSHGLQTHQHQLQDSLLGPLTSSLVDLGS
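Six1/Eya2 binding was read as AlphaScreen signal after compounds were pinned into GST-Six1 plus His-tagged Eya2 (5X stock 250/500 nM) in pH 8.0 Tris/NaCl/TCEP buffer, beads added, then incubated 1 h, 37 C, dark.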
TRPML1 ag = agonists of human TRPML1 channel; 0.12% of 410,000 active; activation, % (no concentration beside the values); TRPML1-expressing cells, Ca2+ dye fluorescence, FDSS; host cell line not named in the record; reference of the full effect not given here; Q9GZU1; AID 624414; in the data active = activation above about 50%; inconclusive = about 30% to 50%; inactive = below about 30%; further: 0% is about no effect; the text of the record puts the active cut at 80%
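Tet-induced TRPML1-DL cells, 1,500 per well, cultured overnight, were loaded with a no-wash Ca2+ dye for 45–90 min. Calcium fluorescence was recorded on the FDSS for 110 s after compound addition, before the EC80 agonist (4 uM 54-4) was added.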
The depositor's hits bear a star; ? = inconclusive; · = no result given; [ ] = another dose, or the depositor's remark.

#	compound	Six1-Eya2 blk	TRPML1 ag	D2 agonist	TRPML1 inh	CtBP-E1A blk	PINK1 expr mod
1	O=C1CN(C(=O)CC2c3ccccc3-c3ccccc32)CC(=O)N1	-1.7	-0.9	-1.4	13.0	-1.8	-0.1%
2	COC(=O)c1ccc(CSc2nc3c([nH]c4ccccc43)c(=O)n2-c2cccc(OC)c2)o1	·	0.8	·	10.7	·	-4.7%
3	CN(C)S(=O)(=O)c1ccc(Cl)c(NC(=O)COC(=O)CN2C(=O)NC(C)(C)C2=O)c1	2.8	0.4	-6.7	9.8	-10.0	1.0%
4	NC(=O)N/N=C/c1c(O)ccc2oc3c(c12)CCCC3	-19.9	1.8	-2.2	-20.1	-18.1	2.6%
5	COc1cc(/C=C2\CCCc3c2nc2ccccc2c3C(=O)O)cc(Br)c1O	?	0.2	0.1	-20.6	?	2.0%
6	CC1CCCCN1C(=O)Nc1cccc(C(F)(F)F)c1 (centres undefined)	5.9	0.1	-4.9	-1.5	-0.5	0.6%
7	Clc1ccc(CSc2cc3c(nn2)-c2ccccc2CC3)cc1	10.4	2.2	-6.8	0.1	26.3	-0.8%
8	CCOC(=O)C1CCN(C(=O)CCn2c(=O)[nH]c3ccccc3c2=O)CC1	1.2	0.4	2.6	2.0	-8.9	-2.5%
9	C#CCOc1ccc2ccccc2c1/C=C(/C#N)c1ccc(C(=O)O)cc1	-3.2	-0.4	-2.5	13.8	0.8	4.2%
10	O=C1C(=Cc2ccc(Br)o2)C(=O)c2ccccc21	?	-1.3	-3.8	-1.6	11.5	1.5%
11	N#Cc1ccc(Oc2c(Cl)cncc2Cl)cc1	6.9	0.1	1.8	12.7	6.3	0.7%
12	O=C(COC(=O)c1cccc(OC(F)F)c1)NC1CCCC1	-5.1	-0.3	-0.9	6.8	6.2	2.3%
13	CCC(C)NC(=S)N1CCN(C)CC1 (centres undefined)	4.1	0.3	2.1	-3.9	·	-0.1%
14	O=C(CN(Cc1ccc(Br)cc1)S(=O)(=O)c1ccccc1)NCC1CCCO1 (centres undefined)	0.0	-0.5	-1.2	-5.2	-13.3	2.2%
15	Cn1c(OCc2cccnc2)nc2c1c(=O)n(Cc1ccccc1)c(=O)n2C	-7.5	0.1	-1.9	-3.1	3.9	-1.2%
16	O=c1ccc2nc3ccccc3sc-2c1	?	-1.6	3.9	·	-15.1	-1.4%
17	COc1cc(C2C(C(=O)c3ccc(C)o3)=C(O)C(=O)N2Cc2ccccc2)ccc1O (centres undefined)	3.5	0.0	-3.1	-17.6	-6.7	3.2%
18	O=C(CC1NC(=S)NC1=O)c1ccc(Cl)cc1 (centres undefined)	-4.7	-0.8	-1.6	-6.1	7.9	-0.7%
19	COc1ccc(NC(=O)COC(C)=O)cc1Cl	4.3	2.4	-5.4	-18.6	0.9	0.5%
20	COc1cccc(Cn2c3ccc(NC(=O)CCc4ccc(F)cc4)cc3c(=O)n2C)c1	-0.2	3.6	2.1	84.5	1.5	9.9%
21	NC(=S)NNC(=O)/C(=C/c1ccc(Br)cc1)NC(=O)c1ccccc1	14.2	0.7	-8.5	-11.9	·	1.7%
22	Nc1c(-c2ccccc2)cnn1-c1ccc(C(=O)O)cc1	3.6	0.1	-3.6	-18.4	-4.5	-1.4%[38.3 µM]
23	COc1ccccc1-c1sc2cc3c(cc2c1-c1ccc(O)cc1)OCO3	-0.7	-0.4	-1.1	-21.5	-3.3	2.2%
24	CN(C)c1ccc(C(=O)NCc2ccc3c(c2)CCO3)cc1	-5.1	1.0	-2.5	27.4	3.1	-1.5%
25	Cc1ccc2c(CC(=O)Nc3ccc(F)c(S(=O)(=O)N4CCOCC4)c3)coc2c1	-0.5	-0.5	-2.3	51.8	-1.9	1.3%

Another view of 2 compounds above:
17	COc1cc(C2C(C(=O)c3ccc(C)o3)=C(O)C(=O)N2Cc2ccccc2)ccc1O (centres undefined)
18	O=C(CC1NC(=S)NC1=O)c1ccc(Cl)cc1 (centres undefined)

Compound	17	18
Six1-Eya2 blk	3.5	-4.7
TRPML1 ag	0.0	-0.8
D2 agonist	-3.1	-1.6
TRPML1 inh	-17.6	-6.1
CtBP-E1A blk	-6.7	7.9
PINK1 expr mod	3.2%	-0.7%

Continuation.
#	compound	Six1-Eya2 blk	TRPML1 ag	D2 agonist	TRPML1 inh	CtBP-E1A blk	PINK1 expr mod
26	O=C(C1CC1)N1CCN=C1SCc1ccccc1	5.8	-0.3	0.0	-14.9	4.1	1.4%
27	COc1ccc(C)cc1NC(=O)c1cc(S(=O)(=O)NC2CCCCCC2)ccc1F	·	2.5	·	4.2	·	1.3%
28	Cn1c(=O)c(=O)n(C)c2cc([N+](=O)[O-])c([N+](=O)[O-])cc21	-10.4	0.9	?	11.1	9.6	-1.6%
29	Cc1[nH]n(-c2ccccc2)c(=O)c1/C=N/NC(=O)c1cccc([N+](=O)[O-])c1	?	-1.3	-5.8	13.6	?	-0.5%
30	CCN(CC)C(=O)c1cccc(-c2csc(C(C)(O)c3cccc(F)c3)n2)c1 (centres undefined)	0.1	-0.1	?	·	-6.5	0.5%
31	C=C(C)Cn1c(SCC(=O)c2ccc(Br)cc2)nc2sc3c(c2c1=O)CCCC3	·	0.8	·	-3.9	·	1.0%
32	COc1ccc(C2=NOC3(CC(=O)N(c4ccc(C)cc4)C3=O)C2)c(OC)c1 (centres undefined)	2.2	3.9	-2.2	16.2	-5.4	-1.5%
33	Cc1ccc(CNC(=O)c2ccc(N3CCCC3)c(NC(=O)Nc3ccc(C)cc3)c2)cc1	·	-0.4	·	-9.5	·	4.3%
34	S=c1[nH]nc(C2CCCCC2)n1/N=C/c1cccs1	-8.7	-0.6	1.4	-9.4	-25.6	5.6%
35	CCN(CCCNC(=O)c1cc(Nc2ccccc2OC)nc2ccccc12)c1cccc(C)c1	·	0.0	·	2.8	·	4.4%
36	COc1cc(/C=N/NC(=O)CNc2n[nH]c(=O)[nH]c2=O)ccc1OCc1ccccc1	-1.0	0.5	-2.7	4.6	-3.5	-0.3%
37	N=c1oc2ccccc2cc1C(=O)Nc1ccc(F)cc1	13.3	-0.4	0.8	1.8	16.1	3.8%
38	COc1ccc(OC)c(C(C(=O)NC2CCCCC2)N(Cc2ccco2)C(=O)c2ccccn2)c1 (centres undefined)	3.0	4.3	-0.6	27.6	1.3	-1.8%
39	N#C/C(=C/c1ccc(-c2ccccc2[N+](=O)[O-])o1)C(=O)NCCN1CCCCC1	-12.3	1.7	-0.9	10.8	-20.3	-1.3%
40	CNC(=O)c1cc2c(s1)CCCCCC2	1.9	2.1	-3.5	-13.0	3.4	-0.8%[38.3 µM]
41	CCn1c(=O)n(-c2ccc3c(c2)OCO3)c2nc(-c3cccc(OC)c3OC)nc(C(N)=O)c21	·	-0.6	·	-8.2	·	-0.2%
42	N#CCN1C(=O)C(=O)N(Cc2cccc(Cl)c2)C1=O	4.4	0.0	-4.8	-5.1	-1.5	-0.8%
43	CCC(C)(C)NC(=O)C(c1ccc(F)cc1)N(Cc1cccs1)C(=O)c1cnccn1 (centres undefined)	-1.6	-0.4	3.2	-2.5	0.0	3.6%
44	COc1ccc(S(=O)(=O)N2CCC(C(=O)NCC3CC3)CC2)cc1	-3.3	-0.5	-5.0	19.8	-1.6	-1.9%
45	O=C(CCc1ccccc1)Nc1c(F)cccc1F	4.2	-0.1	-5.1	40.7	2.9	7.6%[38.3 µM]
46	O=C(NCc1ccc(Cl)cc1)C1CCC(=O)N(C2CC2)C1 (centres undefined)	10.4	0.1	-4.8	10.8	·	1.0%
47	Cc1ccc(N2C(=O)c3ccc(C(=O)O)cc3C2=O)cc1C	-0.2	-0.4	-4.1	-4.1	1.7	51.7%[38.3 µM]
48	Cc1ccc(C(=O)COC(=O)c2cc(Cl)nc3ccccc23)cc1	5.2	1.0	-3.4	11.7	1.3	·
49	Cc1ccc2c(c1)N(C(=O)N1CCC(C(=O)NCc3cccc(Br)c3)CC1)CCO2	·	-0.5	·	17.9	·	-0.4%
50	O=C(NCCc1ccccc1)C1CCCN1C(=O)Nc1ccc(Cl)cc1 (centres undefined)	-0.6	-0.2	0.3	2.7	1.3	0.1%
51	COc1ccc(CN2C(=O)c3ccccc3C2(C)c2nc3ccccc3[nH]2)cc1 (centres undefined)	1.5	-0.9	·	·	7.7	0.3%
52	c1ccc(SCc2nc(-c3ccncc3)n[nH]2)nc1	3.1	0.1	1.8	-19.5	-12.1	0.0%
53	O=C(O)c1ccc2c(c1Nc1ccccc1)C(=O)c1ccccc1C2=O	-66.0*	1.2	-2.7	37.6	?	-1.0%
54	CC(=O)c1cccc(NC(=O)C2CCN(S(=O)(=O)c3ccc(F)cc3)CC2)c1	-1.1	-0.8	2.2	2.9	-5.6	0.1%[38.3 µM]
55	COc1ccc(CN2CCN(CCC(C)C)C(CCO)C2)cc1Cn1cncn1 (centres undefined)	2.9	0.3	-0.8	22.3	·	-1.0%
56	Cc1ccc(OCC(=O)OCc2cc(=O)n3nc(C4CCCCC4)sc3n2)cc1	·	0.5	·	19.6	·	-0.8%
57	Cc1ccc(NC(=O)Cn2cnc3ccccc32)cc1C	8.2	-0.1	-0.4	1.3	8.2	1.3%
58	CN(C)S(=O)(=O)c1cccc(NC(=O)c2ccc(-n3cncn3)c([N+](=O)[O-])c2)c1	-0.8	-0.3	0.8	21.9	-4.8	-1.0%
59	O=C(O)CCc1nn2c3ccccc3n(CC(=O)c3cccs3)c2nc1=O	2.4	-0.2	-0.1	-9.0	1.1	0.1%
60	O=C(c1ccc(Br)cc1)N(Cc1ccco1)C1CCS(=O)(=O)C1 (centres undefined)	-1.9	-0.8	-6.0	6.8	-3.4	0.2%
61	Cc1ccc(S(=O)(=O)N2CCC(C(=O)N[C@@H](C)C(=O)Nc3ccc(F)cc3)CC2)cc1	6.0	-0.6	3.6	-10.3	-2.8	0.7%
62	COC(=O)/C=C/c1cnc[nH]1	0.9	-0.5	-2.5	-6.5	1.8	-0.7%
63	COc1ccc2cc3cc(C(=O)NCCCN4CCC(C)CC4)oc3nc2c1	-1.0	-0.3	-7.5	0.8	-22.3	0.0%
64	CCCn1c(CCC(=O)O)ccc1-c1cccs1	-4.5	-0.2	-0.3	-15.7	-0.9	0.2%
65	COc1cc(/C=N/NC(=O)C2=NNC(=O)C2C)ccc1O (centres undefined)	-3.2	-0.8	0.0	-13.2	6.1	-0.4%

Hits appear at their usual frequency. Share with any hit: about 1%.
